# RecA intein inh: inhibitors of M. tuberculosis RecA intein splicing; P9WHJ3; cell-free RecA intein splicing, fluorescence; inhibition, %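 (about 9 µM by stock and volumes)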; hit rate 0.75% among 290,000; in the data active = inhibition above about 30%; inconclusive = no clear call, values can overlap the other calls;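 also: 0% = vehicle wells and 100% = reference inhibitor control wells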
# Target sequence (P9WHJ3 whole entry, looked up): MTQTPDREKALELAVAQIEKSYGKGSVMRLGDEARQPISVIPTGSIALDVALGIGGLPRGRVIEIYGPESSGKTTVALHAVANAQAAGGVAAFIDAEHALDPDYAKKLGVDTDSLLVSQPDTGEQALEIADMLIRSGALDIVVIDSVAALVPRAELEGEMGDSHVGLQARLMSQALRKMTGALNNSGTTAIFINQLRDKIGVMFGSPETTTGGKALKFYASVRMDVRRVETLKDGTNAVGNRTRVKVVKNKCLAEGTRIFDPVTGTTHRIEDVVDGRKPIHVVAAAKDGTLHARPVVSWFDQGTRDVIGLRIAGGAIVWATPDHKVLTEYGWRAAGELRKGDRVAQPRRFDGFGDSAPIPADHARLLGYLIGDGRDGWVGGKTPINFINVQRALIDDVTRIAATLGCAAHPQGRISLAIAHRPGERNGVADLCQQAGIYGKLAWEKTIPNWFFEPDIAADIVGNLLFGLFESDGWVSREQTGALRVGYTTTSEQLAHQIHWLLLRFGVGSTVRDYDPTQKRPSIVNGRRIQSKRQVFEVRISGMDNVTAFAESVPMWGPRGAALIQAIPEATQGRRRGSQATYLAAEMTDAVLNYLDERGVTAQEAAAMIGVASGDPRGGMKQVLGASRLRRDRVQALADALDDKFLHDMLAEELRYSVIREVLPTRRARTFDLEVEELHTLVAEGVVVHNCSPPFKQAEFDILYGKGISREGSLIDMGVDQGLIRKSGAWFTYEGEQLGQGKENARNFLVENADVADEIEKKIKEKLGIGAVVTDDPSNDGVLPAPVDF
# Mtb bLac sens: beta-lactam sensitization of Mtb H37Rv; M. tuberculosis H37Rv growth with meropenem, percent inhibition; hits of this screen are not shown here; inhibition, % at 25 µM; hit rate 0.27% among 330,000; AID 434955;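 active = about 74% or more and at least 40 points above the plate without the antibiotic, then above 30% in a dose series; inconclusive = first-round hits that could not be retested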;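 also: growth measured after seven days incubation then overnight dye step; 0% = bacteria only wells and 100% = bacteria with antibiotic; twin plates without the antibiotic show which effects depend on it; some results filed as inactive read as strong as hits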
# YopH PTP inh: YopH (Yersinia) phosphatase inhibition; inhibition, %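 (about 10 µM by stock and volumes)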; hit rate 0.16% among 140,000; fluorescence Ex485/Em525;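 active = inhibition of 50% or more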;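 also: controls were vehicle for no effect and minimum signal wells for full effect; inactives centre near -20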
# Mtb growth: M. tuberculosis H37Rv growth inhibitors, H37Rv strain (AID 1626); inhibition, % at 10 µM, or IC50 in µM where a hit was titrated; hit rate 0.95% among 220,000; M. tuberculosis H37Rv growth inhibition; higher % means a stronger effect;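 active = confirmed in a dose series; inconclusive = inhibition above 80% but not taken into the dose series; inactive = below 80% or under 30% at every dose of the series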;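 also: bacteria incubated seven days before Alamar blue readout; 0% = bacteria only wells and 100% = bacteria with antibiotic wells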
# Arbovirus inh: antivirals against arbovirus infection. arbovirus infection cell-based antiviral screen. inhibition, % at 10 µM. hit rate 0.37% among 200,000. AID 1251;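 active = inhibition from about 30%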;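 also: bluetongue infection of BSR cells; cell survival read as ATP light after 72 h; 0% = infected wells without compound and 100% = uninfected wells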
# Arbovirus inh repeat: recorded beside Arbovirus inh, whose call it bears; inhibition, %; measured here: 10K subset replicate screen; many hits read low in the repeat;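 first of two repeat runs on a subset; 0% = infected and 100% = uninfected wells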
# * = called active by the depositor; ? = inconclusive; / = not tested or not shown. The list is partial. The share of hits here may be higher or lower than overall.
SMILES,RecA intein inh,Mtb bLac sens,YopH PTP inh,Mtb growth,Arbovirus inh,others
CCc1cc2c(N3CCN(C)CC3)ncnc2s1,0.1,-12,-26,0%,13,
COC(=O)c1ccc(COc2ccc(/C=N/O)cc2OC)o1,-1.6,5,/,-4%,7,
Cn1c(=O)n(C)c2cc(NS(=O)(=O)c3ccc(F)cc3)ccc21,-5.7,0,/,4%,-2,
O=C(Nc1ccc2c(c1)OCCO2)C1CCN(C(=O)c2ccc(Cl)cc2)CC1,0.2,-5,-27,-5%,2,
CC(=O)N1CC(c2ccccc2)C(c2ccc(Cl)cc2)=N1 (centres undefined),7.1,10,-11,3%,-13,
Cc1onc(-c2ccc3c(c2)OCO3)c1-c1ccc2[nH]ccc2c1,19,44,/,/,/,
N#CCC(=O)Nc1cc(C(F)(F)F)ccc1N1CCOCC1,0.8,5,/,1%,2,
Cn1c(=O)n(C)c2cc(CN3C(=O)OC(C)(C)C3(C)O)ccc21 (centres undefined),-0.8,2,-13,3%,-1,Arbovirus inh repeat=1
Cc1c(S(=O)(=O)N2CCN(c3ccccc3)CC2)c(=O)n(C)c(=O)n1C,2.9,-8,/,-1%,/,
COc1cccc(OCCCCSc2ncccn2)c1,5.5,-5,-37,2%,11,Arbovirus inh repeat=-5
COCCN(C(=O)CSc1nc2ccc(Cl)cc2[nH]1)c1c(N)n(Cc2ccccc2)c(=O)[nH]c1=O,3.0,-15,/,/,/,
Cc1ccc(Nc2ccc(C(F)(F)F)cc2[N+](=O)[O-])cc1,-0.2,7,-38,10%,0,
Cc1ccc(-n2sc3ccccc3c2=O)cc1,-5.9,100,-38,?,-21,
CC1CCN(C(=O)c2ccc(-n3cnnn3)cc2)CC1,6.2,-14,-13,-10%,10,
CC(C)(O)C#Cc1ccc(C(=O)N2CCC(C(N)=O)(N3CCCCC3)CC2)cc1,-1.5,-8,-13,2%,-3,

# 4 entries drawn at random from the list so far:
SMILES,RecA intein inh,Mtb bLac sens,YopH PTP inh,Mtb growth,Arbovirus inh,others
Cn1c(=O)n(C)c2cc(CN3C(=O)OC(C)(C)C3(C)O)ccc21 (centres undefined),-0.8,2,-13,3%,-1,Arbovirus inh repeat=1
COCCN(C(=O)CSc1nc2ccc(Cl)cc2[nH]1)c1c(N)n(Cc2ccccc2)c(=O)[nH]c1=O,3.0,-15,/,/,/,
CC(=O)N1CC(c2ccccc2)C(c2ccc(Cl)cc2)=N1 (centres undefined),7.1,10,-11,3%,-13,
Cc1c(S(=O)(=O)N2CCN(c3ccccc3)CC2)c(=O)n(C)c(=O)n1C,2.9,-8,/,-1%,/,

# (cont.)
SMILES,RecA intein inh,Mtb bLac sens,YopH PTP inh,Mtb growth,Arbovirus inh,others
N#Cc1c(C(F)(F)F)cc(-c2ccc(F)cc2)nc1SCC(=O)O,-2.4,-13,/,3%,9,
CN(C)/C=C1/NC(=S)NC1=O,-3.8,-5,/,0%,5,
COCCOC1CCN(C(=O)c2cc(COc3ccc(F)cc3F)on2)CC1,1.1,?,/,/,/,
CC1(C)Cc2c(c(-c3ccco3)nc3sc4c(NCCO)ncnc4c23)CO1,-2.5,0,/,2%,-8,
Cc1cc(C(=O)COC(=O)CC2Sc3ccccc3NC2=O)c(C)n1-c1ccccc1 (centres undefined),/,9,4,26%,0,
COc1ccc(/C=N/NC(=O)c2cc(-c3ccc4c(c3)OCO4)n[nH]2)cc1OC,0.2,1,-24,9%,-3,
CC(C)(CO)NS(=O)(=O)c1ccc2c(c1)oc(=O)c1cc(S(=O)(=O)NC(C)(C)CO)ccc12,/,-4,-17,-6%,7,
O=C(NC(Nc1ccccn1)C(Cl)(Cl)Cl)c1ccccc1 (centres undefined),0.7,3,/,12%,2,
COc1ccc(C2C(C(C)=O)=C(C)N=c3s/c(=C\c4ccco4)c(=O)n32)c(OC)c1 (centres undefined),12,?,-32,-2%,-13,
Cc1ccc(C)c(-n2c(CNc3ccc(F)cc3)nnc2SCC(N)=O)c1,0.9,4,-35,5%,9,
CC(=O)c1ccc(NC(=O)C(C)N(C)CC(=O)Nc2ccc(N3CCOCC3)cc2)cc1 (centres undefined),-3.2,-10,/,-5%,1,
COc1ccc2c(/C=N/Nc3ccc(C(=O)O)cc3)c[nH]c2c1,-8.8,5,/,/,/,
O=C(CCNS(=O)(=O)c1cccc2nsnc12)N1CCN(c2ccccn2)CC1,0.5,-7,-16,-4%,5,
COc1ccc(C(=O)NCC(c2ccco2)N2CCc3ccccc32)cc1 (centres undefined),-4.1,-1,/,/,/,
Cc1onc(-c2ccccc2)c1C(=O)N1CCN(c2ccccn2)CC1,0.0,-3,/,/,/,
CCOC(=O)Cc1csc(NC(=O)CSc2cc(Cl)ccc2Cl)n1,5.8,12,-33,8%,2,
CCOC(=O)CSC1=N/C(=C\c2cc(OC)c(OC)c(OC)c2)C(=O)N1C,-5.6,6,-19,0%,-14,
CC(C)(C)CNc1cc(N2CCOCC2)ccc1[N+](=O)[O-],-10.0,14,/,7%,6,
O=C1c2c(O)cc(O)cc2O[C@H](c2ccc(O)cc2)[C@H]1O,-3.6,1,/,-8%,/,
CCN(CC(=O)Nc1cc(Cl)ccc1C)C(=O)Cc1sc(C)nc1-c1ccc(F)cc1,3.7,-3,/,/,/,
CCCc1ccc(S(=O)(=O)Nc2ccc(C)c(NS(C)(=O)=O)c2)cc1,-2.1,-9,/,14%,/,
O=C(Cn1nc(Cc2ccncc2)c2ccccc2c1=O)N1CCN(C(=O)c2ccco2)CC1,-1.5,-2,-10,0%,2,Arbovirus inh repeat=2
CC(C)CC(=O)Nc1cc(NC(=O)CC(C)C)cc(C(=O)NC(C)(C)C)c1,-1.4,-3,-13,2%,-1,
Cc1cc(SC(C)C(=O)Nc2c(C)n(C)n(-c3ccccc3)c2=O)nc2ccccc12 (centres undefined),-0.4,-5,-17,-11%,-2,
CCc1cc2c(CN3CCN(Cc4ccccc4)CC3)cc(=O)oc2cc1O,-158,93,/,/,/,
CCC(C)(C)n1nnnc1C(c1ccc(C)cc1)N1CCC(C)CC1 (centres undefined),3.6,1,4,-6%,-3,
Cn1cccc1Cc1nnc(SCC(=O)NC2CCCCC2)n1CCc1ccccc1,5.2,5,-26,-4%,4,Arbovirus inh repeat=7
C#CC1(NC(=O)N(C)C)CCCCC1,-4.6,-2,/,0%,-2,
C/C(=C\C(=O)c1ccc(Br)cc1)NCc1ccccc1,6.5,-4,-18,4%,0,
CC(C)(C)c1ccc(-c2n[nH]c(=S)n2C2CCCC2)cc1,/,-4,-23,6%,7,
COC(=O)C(C)N(C(=O)c1cccc(Cl)c1)c1c(C)cccc1C (centres undefined),5.4,-4,-10,-11%,6,
CCOC(=O)C1CCN(Cc2cc(=O)oc3cc(C)c(Cl)cc23)CC1,-7.4,3,/,/,/,
Fc1ccccc1N1CCN(C(c2ccccn2)c2nnnn2C2CCCCC2)CC1 (centres undefined),3.4,5,-10,-5%,-1,
CC(NC(=O)C1CCC(CNc2c(N3CCOCC3)c(=O)c2=O)CC1)c1ccccc1 (centres undefined),1.9,-6,1,-1%,5,
Cc1ccc2c(c1)N(C(=O)CCC(=O)NCc1ccccn1)CC(C)O2 (centres undefined),-1.0,-4,/,/,/,
O=C(O)c1cccc(N2C(=O)/C(=C/c3ccc([N+](=O)[O-])cc3)C=C2c2ccccc2)c1,7.5,10,/,1%,6,
Nc1ccc2oc(CCc3ccccc3)nc2c1,1.1,46,-52,-9%,-8,
CCn1cc([N+](=O)[O-])c(C(=O)N2N=C3/C(=C/c4cccs4)CCCC3C2c2cccs2)n1 (centres undefined),0.5,13,-4,1%,14,
Cn1c(NC(=O)c2ccccc2)c(-c2cccs2)c(=O)c2ccccc21,-2.4,17,-26,-6%,-2,
c1ccc(NC2=NCCS2)cc1,/,-2,/,-12%,/,
CCCOc1ccc(/C(O)=C2/C(=O)C(=O)N(c3ccccn3)C2c2ccc(OC)cc2)cc1C (centres undefined),1.1,-3,/,/,/,
CN(C(=O)c1ccccc1Cl)C1CCCCC1,-2.2,-5,-29,1%,0,
CCC(C)(C)n1nnnc1C(c1ccc(F)cc1)N1CCC(C(N)=O)CC1 (centres undefined),3.3,6,/,-4%,4,
CC1(C)Cc2c(cnn2-c2cccc(F)c2)C(NC(=O)CSc2ccncc2)C1 (centres undefined),4.1,-16,/,/,/,
Cc1ccc(OCCCCc2c(C)n[nH]c2C)cc1,4.9,97,/,/,/,
CSc1ccccc1NC(=O)CN(C)Cc1c(O)ccc2ccccc12,-3.6,7,/,/,/,
COc1ccc(/C=N\NC(=O)c2ccccc2Br)cc1COc1ccc(F)cc1,-1.9,-9,/,/,/,
Cc1nc(C(=O)NCCC(C)C)sc1C1(C)CC(c2cccc([N+](=O)[O-])c2)=NO1 (centres undefined),-2.9,/,/,0%,/,
O=C(CSc1nnc(-c2ccc(Br)o2)n1Cc1ccccc1)c1ccccc1F,3.1,-5,-2,-2%,-16,
CSc1ccccc1NC(=O)Nc1cccc(Cl)c1C,2.7,16,/,38%,-8,
CCOC(=O)CSc1nnc(-c2ccco2)n1-c1ccccc1,-1.8,-3,-38,-4%,-5,
COc1ccc2c(COC(=O)CC3Sc4ccccc4NC3=O)cc(=O)oc2c1 (centres undefined),-0.2,14,-26,-3%,1,
COc1ccc(C2c3c(nc[nH]c3=O)Oc3nc[nH]c(=O)c32)cc1,0.4,-4,/,/,/,
COc1cccc(-n2c(Cc3cc(=O)[nH]c(=O)[nH]3)nnc2SCC(=O)NC2CCCCC2)c1,/,4,2,-3%,7,Arbovirus inh repeat=-2
Cc1ccc(NC(=O)c2ccc(CSc3nnc(-c4ccncc4)n3C)cc2)cc1,-0.8,-7,-26,-6%,-17,
CCCCC(=O)Nc1ccnc(-c2cccnc2)n1,1.5,-4,-33,13%,8,
O=C(NCCc1nnc2ccc(NCCCN3CCOCC3)nn12)c1ccccc1F,0.1,5,/,/,/,
CCn1cc(C(=O)NC(=S)Nc2ccccc2Br)cn1,-0.8,-15,/,/,/,
CCN(CC)C(=O)C1CCCN(C(=O)c2oc3ccc(C)cc3c2C)C1 (centres undefined),4.8,-11,/,/,/,
CCN(CC)C(=O)c1cc2c(=O)c3cc(F)ccc3oc2nc1C,-1.5,-1,/,1%,5,

# Carrying on.
SMILES,RecA intein inh,Mtb bLac sens,YopH PTP inh,Mtb growth,Arbovirus inh,others
CC(C)(C)c1cc2cccnc2n1Cc1cccc(Cl)c1,-1.5,-7,-35,-7%,1,
COC(=O)c1sccc1NC(=O)c1ccc(C)s1,-0.1,-4,-4,-13%,2,
Cc1c(OC(C)C(=O)O)ccc2c3c(c(=O)oc12)CCCC3 (centres undefined),-2.0,-4,/,/,/,
Cn1cc(CC(=O)NCCCN2CCOCC2)c2ccccc21,-1.1,7,/,7%,14,
CC1CC(C)CN(c2nc(NCc3ccco3)nc(N)c2[N+](=O)[O-])C1 (centres undefined),-1.7,-1,8,8%,33*,
CCOCCCNC(=O)c1ccc(/C=C2\Oc3ccccc3N(C)C2=O)cc1,-35,4,/,/,/,
COc1ccc(OC)c(-c2nnc(-c3ccc(C)o3)o2)c1,-0.1,-4,-5,-20%,20,
Cc1nc(C)c(C(=O)Nc2ccccc2-c2ccccc2)o1,1.0,/,-34,0%,6,
CCOc1ccc(C(CCc2ccccc2)NC(=O)c2ccccc2)cc1OCC (centres undefined),0.4,-3,-20,-7%,1,
O=C(NC(=S)Nc1ccc(Br)cn1)c1cccnc1,1.1,-5,/,-17%,/,

# Arranged by number of heavy atoms (smallest number first): part of the list above
SMILES,RecA intein inh,Mtb bLac sens,YopH PTP inh,Mtb growth,Arbovirus inh,others
O=C(NC(=S)Nc1ccc(Br)cn1)c1cccnc1,1.1,-5,/,-17%,/,
CC(C)(C)c1cc2cccnc2n1Cc1cccc(Cl)c1,-1.5,-7,-35,-7%,1,
Cc1nc(C)c(C(=O)Nc2ccccc2-c2ccccc2)o1,1.0,/,-34,0%,6,

# Source: PubChem BioAssay (several laboratories)
